VDR inhibitor – inhibitors of human vitamin D receptor | P11473 | VDR-SRC2-3 peptide fluorescence polarization, 2 h | Potency, µM, inactives show max response, negative = inhibition, actives largely listed as inhibitors | 400,000 compounds, 0.93% hits | AID 504847; active = well fitted inhibition curve with a large enough effect; inconclusive = small, poorly fitted or top-dose-only effect, or another doubt; inactive = no such curve, though single readings can be large or run the other way; note: series mostly up to about 120 µM
Target sequence (P11473 whole entry, looked up): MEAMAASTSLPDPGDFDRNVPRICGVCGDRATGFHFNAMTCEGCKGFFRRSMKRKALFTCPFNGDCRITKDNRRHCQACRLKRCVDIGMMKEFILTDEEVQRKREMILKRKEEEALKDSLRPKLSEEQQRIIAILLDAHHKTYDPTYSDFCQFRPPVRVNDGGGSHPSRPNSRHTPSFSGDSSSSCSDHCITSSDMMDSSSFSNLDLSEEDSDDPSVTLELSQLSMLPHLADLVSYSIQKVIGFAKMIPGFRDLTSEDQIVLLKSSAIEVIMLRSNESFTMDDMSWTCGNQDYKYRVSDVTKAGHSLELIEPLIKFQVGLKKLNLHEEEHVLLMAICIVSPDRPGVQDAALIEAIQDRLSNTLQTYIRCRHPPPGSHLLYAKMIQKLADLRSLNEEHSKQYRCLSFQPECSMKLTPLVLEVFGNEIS
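FP read-out; VDR + SRC2-3 coactivator peptide; 23 nl compound by pintool; 2 h RT incubation; reagents held at 4 deg C, protected from light.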
Starred values were filed as active, the others as inactive; u = inconclusive. % is set by controls: 0 for no effect and ±100 for the full control effect; potency is the fitted concentration of half-maximal effect. An excerpt, so the mix of outcomes need not match the whole.

structure	VDR inhibitor
CCc1c(-c2ccccc2)nc2nc(C)c(C)nn12	5.3%
CCOc1ccc(S(=O)(=O)N2CCOCC2)cc1NC(=O)c1ccc(N2CCCC2=O)cc1	-5.8%
FC(F)(F)c1cccc(Cn2c3[n+](c4ccc(C(F)(F)F)cc42)CCCCC3)c1	0.4%
O=C(C1CCN(S(=O)(=O)c2ccc(F)cc2)CC1)N1CCCC(C(F)(F)F)C1 (stereo unspecified)	-10.1%
Cc1ccc(C)c(S(=O)(=O)N2CCC(c3nc4c(nnn4Cc4ccc5c(c4)OCCO5)c(=O)[nH]3)CC2)c1	0.0%
C=CC[n+]1c(C)csc1Nc1ccc(C)cc1	8.4%
CCNC(=S)N/N=C/c1cccc(OCc2c(F)cccc2Cl)c1	-6.2%
COc1ccc(CN(C)C(=O)c2ccc(Cl)c(S(=O)(=O)NCc3cccnc3)c2)cc1F	10.1%
CC(=O)c1ccc(OCCCC(=O)OCc2nnc(-c3ccc(Cl)cc3)o2)cc1	-1.6%
O=C(N/N=C/c1ccccc1Cl)c1ccc(F)cc1	7.7%
Cc1cc(C)nc(SCCn2c(N3CC(C)OC(C)C3)nc3c2c(=O)n(C)c(=O)n3C)n1 (stereo unspecified)	-3.2%
CCCCSc1nc(C)[nH]c1[N+](=O)[O-]	2.3%
CCCCn1c(NC(C)=O)c(C#N)c2nc3ccccc3nc21	u
CCOC(=O)c1c(C)nc2sc3c(=O)n(-c4ccc(C)cc4)cnc3c2c1-c1ccc(OC)cc1	-4.5%
COc1ccc(-c2nc(CS(=O)(=O)CC(=O)NCc3cccc(Br)c3)c(C)o2)cc1	3.9%
Cc1ccc(C(=O)NCCCNC(=O)c2ccccc2C)cn1	6.4%
CCN(C(=O)CSc1nc2cc(S(=O)(=O)N(CC)CC)ccc2o1)C1CCS(=O)(=O)C1 (stereo unspecified)	u
O=C(Nc1cnccn1)c1ccc(F)cc1Cl	1.3%
C#CC[N+]1(CC#Cc2ccccc2)CCOCC1	10.2%
Cc1cc2nc3n(c2cc1C)CCCN3	-5.8%
Cc1nnsc1C(=O)NNc1ccc(C(C)C)cc1	-2.6%
CC[C@]12C(=O)N(C)C[C@H]([C@@H]3C(=O)N(Cc4ccccc4)C(=O)[C@@H]31)N2C(=O)c1ccc(Br)cc1	-3.3%
COc1cc(OC)cc(C(=O)NC(C(=O)N2CCC2)C(C)C)c1 (stereo unspecified)	-9.6%
CC1CCCCN1CCNS(=O)(=O)c1ccc2c(c1)oc(=O)n2C (stereo unspecified)	6.8%
O=C(Nc1ccc(F)cc1)Nc1cccnc1Cl	1.8%
Cn1cc(-c2ccno2)c(C(=O)O)n1	6.0%
C(=N\n1cnnc1)/c1cn(-c2cccs2)nc1-c1ccccc1	2.6%
Cc1[nH]n(-c2ccccc2)c(=O)c1C(C[N+](=O)[O-])c1ccc(Br)cc1 (stereo unspecified)	u
CCC(Sc1ccc2nnc(-c3ccc(F)cc3)n2n1)C(=O)OC (stereo unspecified)	3.6%
CCOC(=O)C1CCCN(CC(O)COc2ccccc2C(C)=O)C1 (stereo unspecified)	-6.0%
Cn1cc(Cl)c(C(=O)NNC(=S)NCc2ccco2)n1	u
CCc1cc(=O)oc2c(C)c(OCC(=O)Nc3ccc(S(=O)(=O)N(CC)CC)cc3)ccc12	10.3%
COc1ccc(Cl)cc1NC(=O)c1oc(C)nc1C	5.1%
COc1ccc2oc(C(=O)N3CCN(C/C=C/c4ccccc4)CC3)c(C)c2c1	11.0%
CN(CC(=O)N1CCCCC1)S(=O)(=O)c1ccc(Cl)cc1	-1.3%
CC1CN=C(N(C(=O)Nc2ccccc2)c2ccc(F)cc2)S1 (stereo unspecified)	-0.1%
Cc1sc2ncnc(SCc3ccc(C(=O)O)cc3)c2c1C	-6.5%
CCCCP(=O)(CCCC)Cc1ccccc1O	-11.2%
Cc1ccc(C)c(NC(=S)Nc2cccc3cnccc23)c1	-25.6%
CC[C@]12c3[nH]c4ccc(Cl)cc4c3CCN1C(=O)[C@@H](CC(=O)NCCC1=CCCCC1)C[C@@H]2C(=O)N1CCN(C(=O)c2ccco2)CC1	2.2%
Cc1ccc(C(=O)C2CCN(CC(=O)NC3CCCCC3)CC2)cc1	-4.0%
COC(=O)c1ccc(C)cc1C1CN=NC12Cc1cc(C)ccc1C2=O (stereo unspecified)	u
OCCN(Cc1ccccc1)Cc1cccc(C(F)(F)F)c1	-3.2%
O=C(O)c1cccc(S(=O)(=O)N(Cc2ccccc2)c2ccccc2Cl)c1	-16.7%
COc1ccccc1N1CCN(C(=O)CSc2nc(C)c(C)c(=O)[nH]2)CC1	-13.7%
Cc1c(C(=O)N(C)C)sc2c1c(=O)n(-c1ccccc1C(F)(F)F)c(=O)n2Cc1ccccc1C#N	13.9%
Cc1ccc(NC(=O)c2cc([N+](=O)[O-])ccc2Cl)c(O)c1	-20.8%
Cc1cc(OCC(=O)Nc2ccc(Br)cc2)cc2c1C(=O)CC(C)(C)O2	10.1%
COc1ccccc1CNC(=O)C(Cc1ccccc1)NS(=O)(=O)c1ccc2c(c1)oc(=O)n2C (stereo unspecified)	-14.0%
Cc1cccc(NC(=O)NC2CCCc3ccccc32)c1 (stereo unspecified)	12.0%

(more compounds)
structure	VDR inhibitor
COCC(=O)OC/C(O)=C(\C#N)c1nc2ccccc2[nH]1	-5.6%
O=C(c1cccc(S(=O)(=O)N2CCN(c3ccccc3)CC2)c1)N1CCN(c2ccccc2O)CC1	-5.4%
Nc1nnc(-c2cn(-c3ccccc3)nc2-c2ccc(Cl)cc2)o1	8.5%
CCCCN(CC)C(=O)c1cc2c(=O)n3ccccc3nc2n1C	-2.7%
COc1ccc(Cc2noc(CN3CCCC(OCc4ccccn4)C3)n2)cc1OC (stereo unspecified)	8.2%
O=C(Cc1cccc(C(F)(F)F)c1)NCC(=O)Nc1cc(Cl)ccc1Cl	-10.9%
O=C(Nc1cc(Cl)ccc1Cl)c1cc(S(=O)(=O)N2CCCc3ccccc32)ccc1F	2.0%
CCN(C(=O)CCc1nc(-c2ccc(C)cc2)no1)c1cccc(C(F)(F)F)c1	-8.2%
CCN(CC)S(=O)(=O)c1ccc2c(c1)N(CC(=O)Nc1cccnc1Cl)C(=O)CO2	-13.1%
Cc1cc(SC#N)cc(C)c1NC(=O)CCl	u
Cc1ccc(-n2c(SCC(=O)NCc3ccccc3)nc3n[nH]c(C)c3c2=N)cc1Cl	10.2%
Cc1ccc(NC(=O)Cn2c(=O)oc3cc(S(=O)(=O)N4CCCC4)ccc32)cc1F	10.9%
Fc1ccc(C(CCNCc2cccs2)c2ccco2)cc1 (stereo unspecified)	-3.5%
Cn1c(=O)c2c(SCC(=O)Nc3ccc4c(c3)OCCO4)nc(CC(C)(C)C)nc2n(C)c1=O	-9.4%
Fc1cc(Br)ccc1NC(=S)Nc1cccnc1	20.8%
Cc1cc(Br)ccc1NC(=O)CN1C(=O)CCC1=O	1.0%
Cc1nn(-c2ccc(N3CCCCC3)nn2)c(C)c1CCC(=O)Nc1ccc(F)c(F)c1	-1.0%
CCOC(=O)c1cc2sc(C)cc2n1CC(=O)N(CC)CC	-5.1%
Cc1cc(C(C)(C)C)cc(C)c1COC(=O)CN1C(=O)NC2(CCCC2)C1=O	12.7%
C[C@H](NC(=O)[C@H]1N2C(=O)c3ccccc3C2SC1(C)C)C(=O)N1CCN(C)CC1 (stereo partly specified)	7.7%
Cc1ccc(CCNC(=O)CN(C)S(=O)(=O)c2cnc[nH]2)cc1	-16.5%
Cc1ccc(OCC(=O)Nc2nc(C)c(Cl)cc2Cl)c([N+](=O)[O-])n1	-4.6%
Cc1cc2cc(CN(Cc3cccs3)C(=S)NCc3ccco3)c(=O)[nH]c2cc1C	-17.1%
O=C(O)Cc1ccc2sc(-c3ccccc3)nc2c1	-5.5%
CCc1nnc(NS(=O)(=O)c2ccc(NC(=O)CCC(=O)OC)cc2)s1	-13.8%

Part of the list above, with the structure last.
VDR inhibitor | mol
13.9% | Cc1c(C(=O)N(C)C)sc2c1c(=O)n(-c1ccccc1C(F)(F)F)c(=O)n2Cc1ccccc1C#N
-20.8% | Cc1ccc(NC(=O)c2cc([N+](=O)[O-])ccc2Cl)c(O)c1

Next part
structure	VDR inhibitor
Cc1cc(C(=O)Nc2nnc(C3CCCCC3)s2)cs1	-0.6%
Oc1cc2c(cc1CN1CCc3ccccc3C1)OCO2	8.4%
O=C(NNS(=O)(=O)c1ccc(F)cc1)C1CC(c2cccnc2)=NO1 (stereo unspecified)	12.7%
COc1ccc(CCN(C)CCC(=O)Nc2ccc(C)cc2)cc1OC	-5.3%
CC(=O)N1CCCc2cc(S(=O)(=O)N(C)CC(=O)Nc3ccc(C)cc3C)ccc21	1.5%
CCC(C)c1ccccc1O (stereo unspecified)	13.0%
COc1cccc(NC(=O)c2ccccc2-c2nc(-c3cccc(C)c3)no2)c1	-1.5%
COc1cc(/C=C2/C(=O)NN(c3cccc(Cl)c3)C2=O)cc(Br)c1O	22.4µM*
O=C(CCN=C1NS(=O)(=O)c2ccccc21)NCc1ccccc1F	3.6%
O=c1cc(CSc2ccc([N+](=O)[O-])cc2)nc2sccn12	-3.6%
CN(CC1CCCO1)S(=O)(=O)c1ccc(C(=O)NCc2ccccc2)cc1 (stereo unspecified)	6.6%
COc1ccccc1COC(=O)C(NC(=O)c1ccc(C)cc1)C(C)C (stereo unspecified)	7.4%
COCCCNC(=S)N1CCCN(c2nc3c(C)c(C)ccc3cc2C#N)CC1	11.5%
Cc1nc2sc(C)c(C)c2c(=O)o1	16.7%
COc1cc(C(=S)NC2CCCCC2)ccc1O	u
Cc1onc(-c2c(Cl)cccc2Cl)c1C(=O)NCCN1CCOCC1	6.4%
Cc1nc2c(C(=O)NCCc3ccc(Cl)cc3)cnn2c(C)c1Cc1ccc(F)cc1	3.8%
COc1cccc2cc(-c3nnc(SCC(=O)NCc4ccccc4)n3C)oc12	6.7%
CC(C)c1ccc(Nc2nc(Cl)nc(NCCO)n2)cc1	-14.4%
O=C1c2[nH]nc(-c3ccccc3O)c2C(c2cccc(O)c2)N1Cc1ccco1 (stereo unspecified)	8.0%
O=C(Cn1cnc2cc([N+](=O)[O-])ccc2c1=O)N(Cc1ccccc1)C1CCS(=O)(=O)C1 (stereo unspecified)	-3.0%
Cc1nn(-c2cccc(C(F)(F)F)c2)c(=O)c2noc(C)c12	-17.8%
CCOC(=O)N1CCc2c(sc3c2c(=O)n(Cc2ccccc2)c(=O)n3CC(=O)Nc2cccc(CC)c2)C1	12.2%
CC1(C)Cc2c(C#N)c(N3CCOCC3)nc(Cc3ccccc3)c2CO1	1.4%
CC(C)CCn1c(N2CCCC2)nc2c1c(=O)[nH]c(=O)n2C	-15.0%

In another format: entries from further up
VDR inhibitor | Compound
3.8% | Cc1nc2c(C(=O)NCCc3ccc(Cl)cc3)cnn2c(C)c1Cc1ccc(F)cc1
6.7% | COc1cccc2cc(-c3nnc(SCC(=O)NCc4ccccc4)n3C)oc12
-14.4% | CC(C)c1ccc(Nc2nc(Cl)nc(NCCO)n2)cc1
8.0% | O=C1c2[nH]nc(-c3ccccc3O)c2C(c2cccc(O)c2)N1Cc1ccco1 (stereo unspecified)
-3.0% | O=C(Cn1cnc2cc([N+](=O)[O-])ccc2c1=O)N(Cc1ccccc1)C1CCS(=O)(=O)C1 (stereo unspecified)
-17.8% | Cc1nn(-c2cccc(C(F)(F)F)c2)c(=O)c2noc(C)c12
12.2% | CCOC(=O)N1CCc2c(sc3c2c(=O)n(Cc2ccccc2)c(=O)n3CC(=O)Nc2cccc(CC)c2)C1

More compounds
structure	VDR inhibitor
Cc1ccc(N=C(NO)c2nonc2N)c(C)c1	1.2%
O=C(C1CC1)N1CCC(C(O)(c2ccccc2)c2ccccc2)CC1	11.0%
COc1cccc(/C=N/N2CCN(c3ccncc3S(=O)(=O)N3CCCCC3)CC2)c1	-16.3%
Cc1ccsc1/C=N/NC(=O)CN1CCN(Cc2ccccc2)CC1	0.9%
OC(COCc1ccccc1)CN1CCN(Cc2ccc3c(c2)OCO3)CC1 (stereo unspecified)	-11.4%
COc1cccc(C2N(c3ccccn3)C(=O)C3CCCN32)c1OC (stereo unspecified)	8.1%
CCCc1c(C(=O)Nc2ccc(C(F)(F)F)cc2)cnn1-c1ccccc1	3.4%
Cn1c(=NC(=O)CSCC(=O)N2CCCC2)sc2ccccc21	7.0%
Cc1ccc(OCCN(C)C(=O)C2CCC(=O)N(CCCN3CCCC3=O)C2)cc1 (stereo unspecified)	-9.7%
COc1ccc(N(Cc2cc3ccc(C)cc3[nH]c2=O)S(=O)(=O)c2ccccc2)cc1	1.1%
Cc1ccc(Cl)cc1NC(=O)CCCn1c(=O)c2cccn2c2cccnc21	7.4%
O=C1C=C(NCc2ccccc2)c2ccccc2C1=O	2µM*
O=C(Nc1ccc(F)cc1)c1cccnc1N1CCOCC1	10.5%
Cc1nn(C)c(C)c1-c1c(C#N)c(N)nc2c1CCCCCC2	u
Cc1nn(CCC#N)c(NC(=O)c2ccc(Cl)cc2Cl)c1P(=O)(Nc1ccc([N+](=O)[O-])cc1)N1CCOCC1 (stereo unspecified)	-5.4%
O=C(CSc1nnc(Cc2ccccc2)n1Cc1ccco1)NC1CCCC1	10.6%
COc1ccc(S(=O)(=O)N2CCCC2CNC(=O)C(=O)NCCc2ccccc2)cc1 (stereo unspecified)	-4.8%
Cc1noc(C)c1COc1ccc(C(=O)OCC(=O)Nc2ccc(C(=O)N(C)C)cc2)cc1	-0.9%
COC(=O)c1sccc1-c1ccc(/C=N/OC(=O)c2cccs2)o1	-0.3%
CN(C)S(=O)(=O)c1cccc(NC(=O)COC(=O)c2ccc3ccccc3n2)c1	-7.2%
